# Bioassay records from PubChem.
# Rango release inh – prevents RanGTP from dissociating the Rango-importin beta complex | O95149+P62826 | Biochemical FRET Rango-importin beta, RanGTP-induced dissociation | Potency, µM (highest dose often 46.1 µM), inactives show at the highest dose activity change, negative = inhibition | actives 0.071% (n = 340,000); active means falling FRET ratio curve, often poorly fitted, with flat reads before Ran was added; inconclusive means other falling curves, or compound fluorescence or quenching; inactive means flat or rising ratio curve;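 note: potency is the fitted concentration of half-maximal effect; % of control where 0% means no effect; nearly all actives have a fitted effect of over 45% in size; -100% = wells without RanGTP and RCC1; the record marks most hits as doubtful in a second field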
#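 Quantitative HTS using a FRET biosensor: 0.1 uM Rango, 0.25 uM importin beta, 0.6 uM Ran, 2 mM GTP, 0.2 uM RCC1 final, PBS with DTT, Tween-20 and BSA. Post-read taken 45 min after Ran addition.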
# miR-21 FLuc – miR-21 reporter, rising signal. HeLa miR-21 FLuc reporter, luciferase, 48 h. Potency, µM (series often up to 38.3 µM), without a hit: at the highest dose reporter change, positive = more light. 340,000 tested, under 10 active; active = well fitted rising curve with a large enough effect; inconclusive = small, poorly fitted or top-dose-only effect; inactive = no such curve, though single readings can be large or run the other way;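 note: % of control where 0% means no effect; miR-21 action dims this reporter so a rising signal means less miR-21 action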
#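 Luminescence from a firefly luciferase reporter carrying a miR-21 binding site downstream, stably expressed under a CMV promoter in HeLa cells that make miR-21 endogenously, reports miRNA modulation after 48 h compound exposure up to approximately 40uM final.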
# Rango-impB inh – inhibitors of Rango-importin beta complex formation; AID 540263; Potency, µM (top dose mostly 92.2 µM), inactives show at the top dose inhibition of complex formation; actives 0.031% (n = 340,000); Rango CFP/YFP FRET sensor + importin beta, 45 min; active = rising FRET ratio curve, often small or poorly fitted; inconclusive = mostly compound fluorescence or quenching in the first reads; inactive = flat curves in all reads;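 note: potency is the fitted concentration of half-maximal effect; 0% = DMSO wells and 100% = buffer wells lacking importin beta; nearly all actives have a fitted effect of over 15% in size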
#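 FRET biosensor Rango (snurportin 1 IBB between N-terminal EYFP and C-terminal Cerulean), 50 nM in PBS/1 mM DTT/0.02% Tween-20/0.1% BSA, preincubated 5 min RT with compound; 0.125 microM importin beta added, 45 min RT, CFP/YFP FRET ratio read.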
# GLA inh pH 4.5 – blocks human alpha-galactosidase A at pH 4.5; 230,000 tested, under 10 active; purified enzyme, 4-MU-alpha-Gal fluorescence, pH 4.5; P06280; activity change, negative = inhibition, % at 105 µM; inconclusive = small, poorly fitted or top-dose-only inhibition, or a rising curve; inactive = flat fitted curve, though single readings scatter; no compound was filed as active;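 note: 0% = full activity with enzyme and -100% = basal without enzyme; dose as in the result columns while the protocol names 77 µM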
# Target sequence (P06280 whole entry, looked up): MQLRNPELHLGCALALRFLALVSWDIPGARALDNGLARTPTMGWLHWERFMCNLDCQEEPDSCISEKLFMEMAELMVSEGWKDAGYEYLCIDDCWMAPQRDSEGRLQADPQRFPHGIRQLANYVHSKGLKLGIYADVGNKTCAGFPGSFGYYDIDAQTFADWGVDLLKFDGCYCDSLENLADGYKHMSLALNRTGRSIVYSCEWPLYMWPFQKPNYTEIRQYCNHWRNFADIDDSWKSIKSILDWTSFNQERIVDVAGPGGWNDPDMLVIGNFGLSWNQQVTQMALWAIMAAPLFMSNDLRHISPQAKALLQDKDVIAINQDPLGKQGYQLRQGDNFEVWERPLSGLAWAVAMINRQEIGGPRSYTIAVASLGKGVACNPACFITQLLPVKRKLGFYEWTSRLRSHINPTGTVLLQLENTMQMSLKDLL
# * marks the source's active call; other numbers are inactive results; u = inconclusive; x = no result given; & = joins results of further samples; [ ] = dose if it differs, or a comment. Not all compounds are listed; count on the stated rates, not on these rows.
nr | Rango release inh | miR-21 FLuc | Rango-impB inh | GLA inh pH 4.5 | Structure
1 | 6% | -3% | -0.4% | 12 | CCOCCOC(=O)C1=C(C)N(C)C(=O)NC1c1ccccc1Cl (stereo not drawn)
2 | -3% | 4% | -3.1% | -4 | CC1CCCC(N2C(=O)NC(NC(=O)c3ccco3)(C(F)(F)F)C2=O)C1C (stereo not drawn)
3 | 4% | 2% | -0.5% | x | CN(CC(=O)Nc1ccc(F)cc1)C(=O)COC(=O)CN1C(=O)NC2(CCCC2)C1=O
4 | -7% | 22% | -1.8% | x | Cc1sc2ncnc(N3CCC(C(=O)NCC(=O)Nc4ccc(F)c(F)c4)CC3)c2c1C
5 | 8% | 3% | -2.8% | x | CCCCn1c(N)c(N(CCC(C)C)C(=O)C2=COCCO2)c(=O)[nH]c1=O
6 | 3% | -46% | 0.8% | 4 | Cc1cccnc1NC(=O)NC(=O)c1ccc(C(C)(C)C)s1
7 | -3% | -3% | 6.9% | -9 | COc1ccc(-c2noc(C3CCCN(S(=O)(=O)c4cccc(Cl)c4)C3)n2)cc1OC (stereo not drawn)
8 | -6% | -3% | -2.0% | 4 | Cc1cc(C)nc(NS(=O)(=O)c2ccc(NC(=O)CN3C(=O)C4CC=CCC4C3=O)cc2)n1 (stereo not drawn)
9 | -4% | 0% | -0.3% | -1 | COC(=O)C1=C(C)N(c2cccc(Cl)c2)C(=O)C1
10 | -2% | 1% | 3.3% | -1[21.1 µM] | COc1ccc(N(C)C(=O)Cc2c(C(=O)O)[nH]c3ccccc23)cc1
11 | 2% | 0% | 0.2% | x | Cc1ccc(S(=O)(=O)N(CC(=O)NCc2ccccn2)c2ccc(Cl)cc2)cc1
12 | -17% | -8% | -3.1% | 1 | CCOc1ccccc1CSc1nc2ccccc2[nH]1

# Complete entries from above.
# `COc1ccc(-c2noc(C3CCCN(S(=O)(=O)c4cccc(Cl)c4)C3)n2)cc1OC` (stereo not drawn) as listed: Rango release inh = -3%; miR-21 FLuc = -3%; Rango-impB inh = 6.9%; GLA inh pH 4.5 = -9
# `Cc1sc2ncnc(N3CCC(C(=O)NCC(=O)Nc4ccc(F)c(F)c4)CC3)c2c1C` as listed: Rango release inh = -7%; miR-21 FLuc = 22%; Rango-impB inh = -1.8%; GLA inh pH 4.5 = x

# Going on with the list.
nr | Rango release inh | miR-21 FLuc | Rango-impB inh | GLA inh pH 4.5 | Structure
13 | -18% | -12% | -0.8% | 15 | CCc1c(C)sc(NC(=O)c2cc(CC(C)C)on2)c1C#N
14 | 1% | x | -0.8% | x | CCOc1ncccc1C(=O)Nc1cccc(S(=O)(=O)N2CCOCC2)c1
15 | 13% | 5% | 5.3% | -6 | CCCCCOc1ccc(C(=O)C(c2ccccc2)N2CCOCC2)cc1 (stereo not drawn)
16 | -9% | x | -0.3% | x | C=CCN1c2ccc(Br)cc2C(=O)CS1(=O)=O
17 | u | 3%&3% | u | x | COc1cc(NC(=O)Cn2c(=O)n(CC3CCCO3)c(=O)c3cc(OC)c(OC)cc32)cc(OC)c1 (stereo not drawn)
18 | 5% | x | 2.2% | x | Cc1ccc(S(=O)(=O)N2C[C@@H]3[C@H]4CC[C@H](C4)[C@@H]3[C@@H](C)[C@@H]2c2ccco2)cc1
19 | -6% | -10% | 0.2% | 7 | O=S(=O)(Nc1cccc(-c2cn3cccnc3n2)c1)c1ccc(Cl)cc1
20 | 0% | -1% | 3.9% | 2 | Cc1c(NS(=O)(=O)c2ccc(Cl)c(C(=O)OC(C)C(=O)NCc3ccco3)c2)c(=O)n(-c2ccccc2)n1C (stereo not drawn)
21 | -2% | x | 0.9% | x | OCC1OC(O)CC(O)C1O (stereo not drawn)
22 | 1% | -2% | -1.7% | 1 | CC(=O)C1=C(O)C(=O)N(c2nnn(C)n2)C1c1cccs1 (stereo not drawn)
23 | 1% | 5% | -0.3% | -1 | COC(=O)Cn1c(=O)n(CCc2ccccc2)c(=O)c2c3c(sc21)CCCC3
24 | 7% | x | 3.8% | x | CC(OC(=O)/C=C/c1ccc2ccccc2n1)C(=O)NCc1ccccc1 (stereo not drawn)
25 | -9% | -1% | 3.8% | 4 | O=C(NC1CCCC1)c1ccc(COCC(F)(F)C(F)F)o1
26 | -3% | -2% | 2.3% | 3 | C[C@H](NC(N)=O)C(=O)OCC(=O)NCc1cccs1
27 | x | 2% | x | 3 | CC1CCC(NC(=O)C2CCN(C(=O)NC3CCCCC3)CC2)CC1 (stereo not drawn)
28 | 9% | -3% | 0.6% | 5 | CCC(C)Sc1nc(O)cc(=O)[nH]1 (stereo not drawn)
29 | -4% | -8% | -1.9% | 1 | Cc1cc(C(=O)NC(C)c2ccc3c(c2)OCO3)cs1 (stereo not drawn)
30 | 34% | x | -1.6% | x | Cc1ccc(CNC(=O)COC(=O)c2cc(C)oc2C)cc1
31 | 6% | 2% | 0.5% | 2 | Cc1csc(NC(=O)C2C3C=CC(C3)C2C(=O)O)n1 (stereo not drawn)
32 | -3% | -7% | 3.8% | -5 | CC(C)C[C@H](N)c1nnc(SCc2ccc(Cl)cc2)o1
33 | -15% | -14% | 0.7% | -5 | Cc1ccc(CN(C(=O)Cn2nnc3ccccc32)C(C(=O)NCc2ccco2)c2cccs2)cc1 (stereo not drawn)
34 | -10% | -24% | 6.4% | x | c1ccc(-c2csc(Nc3ccccn3)n2)cc1
35 | 22% | -1% | 4.3% | 1 | N/C(CCN1CCOCC1)=N/O
36 | 0% | x | 1.0% | x | Cc1[nH]c2ccc(C(=O)OC(C)C(=O)N(C)C3CCCCC3)cc2c1C (stereo not drawn)
37 | 2% | 13% | -2.4% | -5 | Cc1ccc(-n2c(SCC(=O)N3CC(=O)Nc4ccccc43)nc3ccccc3c2=O)cc1C
38 | u | -11% | -1.6% | -8 | O=C(c1cc2ccccc2o1)N1CCN=C1SCc1cccnc1
39 | -19% | -3% | 4.9% | x | CSCc1c(C(=O)NCCc2ccccn2)oc2ccccc12
40 | -3% | 1% | -2.5% | 8 | CC(=O)Nc1ccc(S(=O)(=O)NCC(=O)OCc2cc(=O)oc3ccc4ccccc4c23)cc1
41 | 0% | -11% | 0.1% | 6 | CC(=O)OC[C@]1(OC(C)=O)C[C@@]23CC[C@H]4[C@@](C)(CCC[C@@]4(C)C(=O)O)[C@@H]2CC[C@@H]1C3
42 | 2% | -2% | -1.2% | 8 | C=CCN1C(=O)C2(C(C(=O)c3ccc(C)o3)=C(O)C(=O)N2CCCN2CCOCC2)c2ccccc21 (stereo not drawn)
43 | 9% | -5% | -2.8% | 2 | CCCOc1ccc(/C=C/C(=O)Nc2ccc([N+](=O)[O-])cc2C)cc1
44 | -8% | 0% | -3.0% | 3 | COc1cc(C(=O)NC2CCCCC2)ccc1OCc1ccc(Cl)cc1Cl
45 | 31% | -5% | -2.8% | 6 | CC(C)C(=O)NC(=S)Nc1ccccc1C(F)(F)F
46 | -7% | -1% | -2.5% | x | COc1cc(OC)cc(C(=O)Nc2cccc3c2CCCC3)c1
47 | -2% | -3% | -3.8% | 6 | COc1cc(C(=O)OC(C)C(=O)N2CCc3ccccc3C2)ccc1OCC(=O)N1CCOCC1 (stereo not drawn)
48 | 4% | 0% | u | x | COc1ccc(/C(C)=N/NC(=O)CNC(=O)c2ccncc2)c(OC)c1
49 | 0% | -14% | u | -17 | CSC(=Nc1ccccc1)C(C#N)c1nc2ccccc2[nH]1 (stereo not drawn)
50 | 2% | -6% | -1.2% | 10 | NC(=O)C1CCCN(S(=O)(=O)c2ccc(Br)cc2)C1 (stereo not drawn)
51 | 14% | -1% | -2.0% | -1 | CC(=O)Nc1cccc(C(=O)Nc2ccccc2C(=O)O)c1
52 | 0% | -3% | 1.1% | x | Cc1ccc(NC(=O)Cc2nnc(SCC(=O)NC3CCCC3)n2C)c(C)c1
53 | 1% | -19% | -0.5% | 1 | CCN1C(=O)/C(=C/C=C2\C=CN(CC)c3ccccc32)SC1=S
54 | u | x | u | x | O=C(NN=Cc1ccc(N2CCOCC2)cc1)c1cc2ccccc2cc1O
55 | -12% | 14% | -11% | x | CN(CC1CCCO1)S(=O)(=O)c1ccc(C(=O)Nc2ccc(F)cc2)cc1 (stereo not drawn)
56 | 20% | 4% | -0.3% | 4 | CN(C)S(=O)(=O)c1ccc(C(=O)OCCCN=C2NS(=O)(=O)c3ccccc32)cc1
57 | -6% | 2%&1% | 8.2% | -10 | CCOc1ccc(NC(=O)c2ccc3c(SCC(=O)O)c4c(nc3c2)CCCC4)cc1
58 | 23% | -29% | -3.9% | 7 | COc1ccccc1C(=O)CSc1nnc(-c2ccco2)o1
59 | 0% | x | 0.1% | x | CC1CCCN(C(=O)c2ccc(NS(=O)(=O)c3cccc([N+](=O)[O-])c3)cc2)C1 (stereo not drawn)
60 | 3% | 0% | -10% | x | CC(=O)NC(Cc1cccc(C)c1)C(=O)NC1CCN(C(=O)NCc2ccccc2)CC1 (stereo not drawn)
61 | -11% | 2% | u | x | Cc1ccc(C(=O)N2CCc3ccccc32)cc1[N+](=O)[O-]
62 | 5% | u | 0.3% | -4 | CCc1ccc(-c2nc(CSCC(=O)N3CCN(c4ccccn4)CC3)c(C)o2)cc1
63 | 22% | -9% | -2.6% | -13 | O=C(COc1ccccc1Cl)OCC(=O)N1CCN(S(=O)(=O)c2ccccc2)CC1
64 | 0% | 1% | -1.2% | x | Cc1cccc(NC(=O)NN2CCN(C)CC2)c1C
65 | 17% | x | 0.9% | x | Oc1cc(-c2ccncc2)cc2cccnc12
66 | 0% | x | -0.3% | x | C[C@H](CO)N1C[C@H](C)[C@@H](CN(C)S(=O)(=O)c2cccs2)Oc2c(NC(=O)Nc3ccc4c(c3)OCO4)cccc2C1=O
67 | -5% | -3% | 0.7% | 5 | N#CC1=C(N)Oc2n[nH]c(-c3cccs3)c2C1c1ccoc1 (stereo not drawn)
68 | 16% | x | 0.5% | x | Cn1cc(C(=O)NCCc2ccccc2)c(=O)c2cc(S(=O)(=O)N3CCOCC3)ccc21
69 | -6% | -4% | -0.3% | 6 | CC(C)(C)Cn1c(=O)[nH]c(=O)c2cc([N+](=O)[O-])cnc21
70 | -23% | 11% | -1.3% | 9 | CC(C)OC(=O)c1cc2c(ccn2-c2ccc(F)cc2)n1CC(=O)N1CCN(C(=O)c2ccco2)CC1

# Compounds from the list above containing a Cl atom:
nr | Rango release inh | miR-21 FLuc | Rango-impB inh | GLA inh pH 4.5 | Structure
1 | 6% | -3% | -0.4% | 12 | CCOCCOC(=O)C1=C(C)N(C)C(=O)NC1c1ccccc1Cl (stereo not drawn)
7 | -3% | -3% | 6.9% | -9 | COc1ccc(-c2noc(C3CCCN(S(=O)(=O)c4cccc(Cl)c4)C3)n2)cc1OC (stereo not drawn)
9 | -4% | 0% | -0.3% | -1 | COC(=O)C1=C(C)N(c2cccc(Cl)c2)C(=O)C1
11 | 2% | 0% | 0.2% | x | Cc1ccc(S(=O)(=O)N(CC(=O)NCc2ccccn2)c2ccc(Cl)cc2)cc1
19 | -6% | -10% | 0.2% | 7 | O=S(=O)(Nc1cccc(-c2cn3cccnc3n2)c1)c1ccc(Cl)cc1
20 | 0% | -1% | 3.9% | 2 | Cc1c(NS(=O)(=O)c2ccc(Cl)c(C(=O)OC(C)C(=O)NCc3ccco3)c2)c(=O)n(-c2ccccc2)n1C (stereo not drawn)
32 | -3% | -7% | 3.8% | -5 | CC(C)C[C@H](N)c1nnc(SCc2ccc(Cl)cc2)o1
44 | -8% | 0% | -3.0% | 3 | COc1cc(C(=O)NC2CCCCC2)ccc1OCc1ccc(Cl)cc1Cl
63 | 22% | -9% | -2.6% | -13 | O=C(COc1ccccc1Cl)OCC(=O)N1CCN(S(=O)(=O)c2ccccc2)CC1
